Source: PubChem BioAssay
HPGD block: HPGD (human) dehydrogenase inhibition | P15428 | purified HPGD, NADH fluorescence kinetic, PGE2 substrate | Potency, µM, for the others: at the top dose activity change, negative = inhibition, usual class: inhibitors | 150,000 tested, 4.3% active | AID 894; active = well fitted inhibition curve with a large enough effect (not every such curve was filed as active); inconclusive = small, poorly fitted or top-dose-only effect, or another doubt; inactive = no such curve, though single readings can be large or run the other way;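 note: top concentration of the series not given in the record; plate controls included wells without enzyme; inactives centre near -10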
Target sequence (P15428 whole entry, looked up): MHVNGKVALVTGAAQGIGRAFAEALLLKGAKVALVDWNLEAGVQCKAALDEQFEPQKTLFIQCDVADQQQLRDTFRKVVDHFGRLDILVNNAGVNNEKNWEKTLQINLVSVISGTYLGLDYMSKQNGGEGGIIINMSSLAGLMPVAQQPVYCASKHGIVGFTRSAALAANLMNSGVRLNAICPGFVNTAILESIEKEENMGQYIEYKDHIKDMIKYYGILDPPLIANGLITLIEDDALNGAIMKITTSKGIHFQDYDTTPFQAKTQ
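NADH formation kinetics: reaction with 30 uM PGE2 and 1 mM NAD+ (final), 20 nM enzyme, Tris-HCl pH 8 with Tween 20, after 15 min compound preincubation at room temperature. Fluorescence change, last versus first of five reads.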
Starred values were filed as active, the others as inactive; u = inconclusive; & = joins results of further samples. % is set by controls: 0 for no effect and ±100 for the full control effect; potency is the fitted concentration of half-maximal effect. These rows are one share of the data; rates above refer to the full screens.

SMILES	HPGD block
CC(C)NC(=O)C(Cc1ccccc1)N1C(=O)c2ccccc2C1=O (stereo not given)	-9%
C/C(=N/NC(=O)c1ccoc1C)c1ccc(NC(=O)c2ccncc2)cc1	-19%
O=S(=O)(c1ccc(Br)s1)N1CCC(Cc2ccccc2)CC1	-14%
CCOc1ccc(OCC)c(NC(=O)CSc2nc3c(c(=O)n(C)c(=O)n3C)n2C)c1	-8%
O=C(C1CCN(c2ccc(N3CCOCC3)nn2)CC1)N1CCc2ccccc2C1	u
N/C(=N\OC(=O)N1c2ccccc2Sc2ccccc21)c1ccc(Br)cc1	-23%
O=C(CCSc1ccccc1)Nc1ccc(S(=O)(=O)N2CCOCC2)cc1	-17%
O=C1c2ccccc2C(=O)N1c1nc(-c2cccs2)cs1	-11%
COc1ccccc1-n1c(C)c2c(OC)cccc(=O)c2c1C	11µM*
Cc1nc2ccc(C(=O)O)cc2nc1C	-7%
COCCn1c(=O)c(-c2ccc(Cl)cc2)nc2cnc(Oc3ccccc3)nc21	u
CN(C)S(=O)(=O)c1cccc(NC(=O)CSc2nc3ccccc3n2-c2ccccc2)c1	-22%
COc1ccc(-c2cc(C(F)(F)F)nc(SCC(=O)N(C)Cc3cnn(C)c3C)n2)cc1OC	-27%
COC(=O)c1ccc(C2/C(=C(/O)c3ccc(OC)cc3)C(=O)C(=O)N2c2cc(C)on2)cc1 (stereo not given)	u
O=C(COc1ccc([N+](=O)[O-])cc1)NCCC1=CCCCC1	-11%
O=C(CSc1nnc(CNC(=O)c2ccco2)o1)c1ccccc1	-8%
CC(N)C12CC3CC(CC(O)(C3)C1)C2 (stereo not given)	-15%
NC(=O)[C@H](Cc1cc2ccccc2s1)NC(=O)[C@@H]1CC2(CC(c3cccc(NC(=O)[C@@H]4CCC(=O)N4)c3)=NO2)CN1C(=O)/C=C/Sc1ccccc1 (stereo not given in full)	-7%
Cc1ccccc1Nc1ccc(S(=O)(=O)N2CCOCC2)cc1[N+](=O)[O-]	u
COC(=O)c1ccc(Cl)c(NC(C)=O)c1	-21%
COc1cc(NS(=O)(=O)c2ccc(NC(=O)c3ccco3)cc2)nc(OC)n1	-5%
CCCCCCCCCCCCCCC[C@@H](O)[C@H](CO)NC(C)=O	-11%
Cc1[nH]n(-c2ccccc2)c(=O)c1Sc1ccc(Cl)cc1	-5%
COc1ccc(C(=O)Nc2nc(-c3ccc(OC)cc3)c(-c3ccc([N+](=O)[O-])cc3)s2)cc1	-12%
N#C/C(=C\c1ccc(N2CCOCC2)o1)c1ccccc1	u
Cc1ccc(C(=O)Nc2ccc3c4c(cccc24)CC3)cc1[N+](=O)[O-]	u
Cc1c(OCc2ccccc2)c(=O)ccn1Cc1ccccc1	u
CCSc1nnc(NC(=O)CSc2nc3c(c(=O)n2CC)SC(C)C3)s1 (stereo not given)	-9%
CCC(=O)Nc1ccc(/C(C)=N\NS(=O)(=O)c2ccc(C)cc2)cc1	-13%
O=C(O)CC1=C(Nc2ccccc2)C(=O)N(c2ccccc2)C1c1ccc(F)cc1 (stereo not given)	-2%
Cc1ccc(S(=O)(=O)NC(CC(=O)O)c2ccccc2)cc1 (stereo not given)	3%
O=C(CN(Cc1cccs1)C(=O)CNC(=O)c1ccco1)NC1CCCCC1	-16%
Cn1c(CSc2nc3ccccc3s2)nc2ccccc21	u
Nc1nc(N2C(=O)C3CC=CCC3C2=O)nn1-c1ccccc1 (stereo not given)	-4%
C[C@@H](N)C(=O)O	1%
O=C(Nc1ccc2c(c1)OCCO2)c1cccc2nc3ccccc3nc12	-15%
CCn1c(NCc2ccccn2)nc2c1c(=O)n(C)c(=O)n2C	-1%
COc1ccc(C(=O)CSc2n[nH]c(-c3ccncc3)n2)cc1[N+](=O)[O-]	-23%
O=C(NC1CCCCC1)N(Cc1ccccc1)Cc1ccco1	-8%
Cc1ccc(N2CCN(CCC(=O)O)CC2)cc1	-8%
CCCCN(CCCC)S(=O)(=O)c1ccc2oc(C(=O)N3CCOCC3)c(C)c2c1	-28%
CCOC(=O)c1ccccc1NC(=O)Cn1c(=O)n(Cc2ccccc2)c(=O)c2c(C)c(C)sc21	-10%
CCCC(=O)Nc1nnc(Cc2ccccc2)s1	-3%
COC(=O)CSc1ccc(C#N)c(SCC(=O)OC)c1	-17%
Cc1nn(-c2ccccc2)c(C)c1C(=O)OCC(=O)N1CCN(S(=O)(=O)c2ccccc2)CC1	-2%

Random excerpt: seven entries already listed.
SMILES	HPGD block
Cc1nn(-c2ccccc2)c(C)c1C(=O)OCC(=O)N1CCN(S(=O)(=O)c2ccccc2)CC1	-2%
CCCCN(CCCC)S(=O)(=O)c1ccc2oc(C(=O)N3CCOCC3)c(C)c2c1	-28%
COc1ccc(C(=O)CSc2n[nH]c(-c3ccncc3)n2)cc1[N+](=O)[O-]	-23%
CCn1c(NCc2ccccn2)nc2c1c(=O)n(C)c(=O)n2C	-1%
CCCC(=O)Nc1nnc(Cc2ccccc2)s1	-3%
Nc1nc(N2C(=O)C3CC=CCC3C2=O)nn1-c1ccccc1 (stereo not given)	-4%
Cc1ccc(S(=O)(=O)NC(CC(=O)O)c2ccccc2)cc1 (stereo not given)	3%

Remaining list, next part.
SMILES	HPGD block
COc1ccc(NC(=O)CSc2nnc(Cc3cccn3C)n2CCc2ccccc2)c(OC)c1	0%
Cc1ccc(-n2nc(-c3ccco3)cc2C(=O)NCc2cccnc2)cc1	u
CCC(C)(C)n1nnnc1C(c1ccc(OC)c(OC)c1)N1CCN(c2cccc(OC)c2)CC1 (stereo not given)	-15%
Cc1ccc(S(=O)(=O)NCCC(c2ccccc2)c2ccco2)cc1 (stereo not given)	-13%
CC1=NOC2(C1)N(C)c1ccccc1C2(C)C (stereo not given)	-6%
O=C(NCc1ccccn1)c1ccc(Cn2cc(Br)cn2)o1	-15%
Cc1nc(SCC(=O)NCc2ccccc2)c2oc3ccccc3c2n1	-1%
Cc1ccc(Cn2nnc3c(=O)n(Cc4ccccc4C)cnc32)cc1	-7%
Cc1ccccc1-n1nc2c(c1NC(=O)c1c(-c3ccccc3Cl)noc1C)CSC2	-3%
CCOC(=O)c1[nH]c(CSc2nnc(-c3ccncc3)n2CCOC)c(C(=O)OCC)c1C	-3%
N#Cc1cnc2sc3ccccc3n2c1=N	-26%
COC(=O)C(N)Cc1ccc(O)cc1 (stereo not given)	7%
COc1ccc2c(c1)C(=O)/C(=C/C=C/c1ccccc1)CC2	-21%
CN1C(=O)C2C=CC1C1C(=O)N(c3ccccc3)C(=O)C21 (stereo not given)	-17%
Cc1cc(Nc2ccccc2)n(-c2cccc(Cl)c2)n1	28µM*
Cn1nnnc1SCC(=O)Nc1ccccc1N1CCCCC1	5%
Cc1c(S(=O)(=O)Nc2cccc(Cl)c2)c(=O)n(C)c(=O)n1C	-1%
COCCSc1nnc(NC(=O)C2CCCCC2)s1	-7%
CC(C)CNC(=O)c1cccc(NC(=O)Cc2ccc(Cl)cc2)c1	-7%
Cc1cccc(CS(=O)(=O)Cc2ccc(C(=O)NCC3CCCO3)o2)c1 (stereo not given)	-7%
CSc1nnc2n(-c3ccccc3)c(=O)c3c4c(sc3n12)CCC4	-8%
CN(Cc1cccs1)c1ncnc2sccc12	u
O=C(NCCCn1ccnc1)Nc1ccc(Cl)cc1Cl	-3%
Nc1ccc(Cc2ccc(N)c(C(=O)O)c2)cc1C(=O)O	-8%&-15%
O=C(CSc1nnc(-c2ccccc2)n1-c1ccc(Cl)cc1)NNC(=S)Nc1ccccc1	-18%
COc1ccc(NC(=O)c2cc(S(=O)(=O)NCC3COc4ccccc4O3)ccc2F)cc1 (stereo not given)	-13%
O=S(=O)(c1ccc(-c2nnc(SCc3nnc(-c4ccccc4)o3)o2)cc1)N1CCCC1	-7%
Cc1cccc(N2C(=O)/C(=C\c3ccc(OC(F)F)cc3)c3ccccc3C2=O)c1	10µM*
CCN(CC)c1ccc(C(=O)NC(=S)Nc2cc(S(=O)(=O)N3CCOCC3)ccc2-n2cncn2)cc1	-13%
c1ccc(Oc2cccc(OCCCCN3CCCC3)c2)cc1	-16%
Brc1ccc(C2C3=C(Nc4ncnn42)c2ccccc2OC3c2ccncc2)cc1 (stereo not given)	-10%
COc1ccc(C(=O)Nn2c(SCC(=O)NCC3CCCO3)nc3ccccc3c2=O)cc1 (stereo not given)	-30%
Cn1nc(-c2ccc(OCC(=O)NCC3CCCO3)cc2)c2ccccc2c1=O (stereo not given)	u
COc1ccc(NC(=O)N2CCN(S(C)(=O)=O)CC2)cc1OC	0%
O=C(Nc1cccc(Cl)c1N1CCCC1)c1ccc(Br)o1	0%
Cc1ccc2oc(=O)c3cc(C(=O)NCc4ccco4)sc3c2c1	-30%
CC(O)CN(CCC(N)=O)CCC(N)=O (stereo not given)	4%
O=C(CSc1nnc(-c2cccs2)n1CC1CCCO1)c1cc2ccccc2o1 (stereo not given)	u
O=C(NCc1ccco1)c1cnn2c1NC(c1ccccc1)CC2C(F)(F)F (stereo not given)	28µM*
CCOc1cc(S(=O)(=O)Nc2ccc(CC)cc2)ccc1Cl	u
CCOc1ccc2nc(NC(=O)Nc3cccs3)sc2c1	-3%
Cn1cccc1C(=O)NC(=O)CSc1cccc[n+]1[O-]	-28%
COc1cc(C)ccc1OCCOc1cc(C)ccc1Cl	2.2µM*
CC1CCCN(C(=O)c2ccc3nc[nH]c3c2)C1 (stereo not given)	2µM*
O=C1CC(c2ccccc2)CC2=C1CN(C1CCCCC1)CN2 (stereo not given)	-14%
O=C(CN1CCN(S(=O)(=O)c2ccccc2)CC1)Nc1ccc(Cl)c(Cl)c1	0%
Cn1c(N2CCCC2)nc2c1c(=O)n(Cc1ccc(Cl)cc1)c(=O)n2C	-19%
CCC(C#CCN1CCCCC1)(CC)OCCC#N	-4%
O=C1C(Cl)=C(NCCN2CCOCC2)C(=O)c2ncccc21	-16%
Cc1nnc(SCC(=O)Nc2nc(-c3ccccc3)cs2)n1N	-15%
COc1ccc(NC(=O)C(c2cc3c(cc2[N+](=O)[O-])OCO3)N(C)c2ccccc2)cc1 (stereo not given)	-13%
Cc1cc(/C=C2\SC(=Nc3ccc(N4CCOCC4)cc3)N(C)C2=O)c(C)n1-c1cccnc1	-3%
CCN(CC)c1ccc2cc(-c3nnc(-c4ccncc4)o3)c(=O)oc2c1	u
O=C(CN1CCCC1)NC1C2CC3CC(C2)CC1C3 (stereo not given)	-10%
CC(C)Cc1[nH]c(=O)c(C#N)c2c1CCCC2	u
Cc1nc2ccccc2c(=O)n1/N=C/c1ccc(O)cc1	-12%
O=C(O)c1ccc(-c2ccccc2)[nH]1	-8%
O=C1C(NS(=O)(=O)c2ccc(Cl)cc2)=C(N2CCCCC2)C(=O)c2ccccc21	-17%
C(=C\c1ccccc1)/CSc1nnc(-c2ccccn2)n1Cc1ccco1	-9%
C#CCOC(=O)C(NC(=O)c1ccccc1)=C1CCCCC1	-1%

Sorted by value in HPGD block (smallest number first): six from the list above
SMILES	HPGD block
Cn1c(N2CCCC2)nc2c1c(=O)n(Cc1ccc(Cl)cc1)c(=O)n2C	-19%
O=C1C(NS(=O)(=O)c2ccc(Cl)cc2)=C(N2CCCCC2)C(=O)c2ccccc21	-17%
COc1ccc(NC(=O)C(c2cc3c(cc2[N+](=O)[O-])OCO3)N(C)c2ccccc2)cc1 (stereo not given)	-13%
CCC(C#CCN1CCCCC1)(CC)OCCC#N	-4%
C#CCOC(=O)C(NC(=O)c1ccccc1)=C1CCCCC1	-1%
O=C(CN1CCN(S(=O)(=O)c2ccccc2)CC1)Nc1ccc(Cl)c(Cl)c1	0%

Other entries follow:
SMILES	HPGD block
COc1ccc(CCNC(=O)Cn2nnc(-c3ccccc3F)n2)cc1OC	-10%
CSc1ccc(NC(=O)NCCCN2CCN(c3ccccc3F)CC2)cc1	-1%
CC(=O)c1c(NC(=O)C(C)C)nc(C)nc1-c1ccccc1	-6%
Cn1c(SCC(=O)Nc2cccc(F)c2)nnc1-c1cc2ccccc2o1	-21%
Cc1ccc(OCc2nc(-c3ccccn3)no2)cc1	-13%
Clc1ncnc2scc(-c3ccc(Br)cc3)c12	-11%
CC1CCC/C(=C\Nc2ccccc2C(=O)O)C1=O (stereo not given)	u
CC(C)(C)NC(=O)C(c1ccc(OCC(N)=O)cc1)N(C(=O)c1cccnc1)C1CC1 (stereo not given)	-7%
C/C(=N/OCC(=O)Nc1ccc(C)cc1C)c1cccs1	7.9µM*
COC(=O)Cc1ccc(N(Cc2ccccc2F)S(=O)(=O)c2ccc(C)cc2)cc1	-16%
COc1ccccc1OCc1ccc(C(=O)OCC2CCCO2)o1 (stereo not given)	0%
CCOC(=O)CSC(=S)NC(=O)c1ccc(OC)cc1	10µM*
Cn1c(=S)c2[nH]c(SCCCc3ccccc3)nc2n(C)c1=O	-5%
CCOC(=O)c1c(NC(=O)C(C)S(=O)(=O)c2cn(CC)c3ccccc23)sc2c1CCCC2 (stereo not given)	-11%
NC(=O)C1CCN(c2ccc(C(F)(F)F)cc2[N+](=O)[O-])CC1	-10%
CSc1nc(NC(C)(C)C)nc(Oc2ccc(=O)n(C)n2)n1	-10%
Cc1ccc(NC(=O)[C@@H]2CCCN2S(=O)(=O)c2ccccc2F)cc1S(=O)(=O)N1CCOCC1	-8%
Cc1cc(Br)ccc1SCC(=O)OCC(=O)NC(C)c1ccccc1 (stereo not given)	-10%
CCC(=O)Nc1ccc(C(=O)NNC(=O)COc2cc(C)ccc2C)cc1	-12%
COc1ccc(-c2nnc3sc(COc4ccccc4)nn23)cc1	-17%
CN=Cc1sc2ccccc2c1O	-10%
CCOC(=O)c1ccc2nc(C(F)(F)F)[nH]c(=O)c2c1	u
COc1ccc(C(CC(=O)Nc2cc([N+](=O)[O-])ccc2OC)c2ccccc2)cc1 (stereo not given)	-28%
CNC(=O)c1nnn(-c2ccccc2)c1C(=O)NC	6%
